CBX7 AlphaScr: inhibitors of human CBX7 binding to H3K27me3 peptide. O95931. AlphaScreen His6-CBX7 / biotin-H3K27me3 peptide binding; stronger effect = lower value. normalised signal (fraction of DMSO) (no concentration beside the values). 1.1% of 66,000 active; in the data active = normalised signal below about 0.5;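 also: 100 nL library stock added to about 20 µL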
Target sequence (O95931 whole entry, looked up): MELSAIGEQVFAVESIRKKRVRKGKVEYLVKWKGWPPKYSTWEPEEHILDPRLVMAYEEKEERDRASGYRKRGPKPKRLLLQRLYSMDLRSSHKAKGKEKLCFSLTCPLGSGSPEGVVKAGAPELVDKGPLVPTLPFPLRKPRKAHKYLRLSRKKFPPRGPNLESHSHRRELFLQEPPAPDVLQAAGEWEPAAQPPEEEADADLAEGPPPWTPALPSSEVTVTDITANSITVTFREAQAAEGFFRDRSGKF
CBX7 AlphaScr z-score: recorded beside CBX7 AlphaScr, whose call it bears; z-score; measured here: z-score of CBX7 signal; some inactives read as strong as hits; reference of the scale not given here;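 same signal on another scale; lower means less binding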
Numbers without * were called inactive. Not all compounds are listed (hit frequency here may not be typical).

SMILES	CBX7 AlphaScr	CBX7 AlphaScr z-score
CCC(C)Sc1nnc(Cc2cc(=O)[nH]c(=O)[nH]2)n1-c1ccc(OC)cc1 (stereo not given)	0.84	-2.4
Cc1ccccc1Cn1ccc(NC(=O)c2onc(C)c2Cl)n1	1	1.3
CCC(C(=O)NCc1ccc2c(c1)OCO2)n1ncc2ccccc21 (stereo not given)	0.83	-4.3
CC(C)(C)S(=O)(=O)c1ccccc1-c1noc(-c2ccccc2)c1C(N)=O	1.1	0.42
COc1ccccc1-c1cc2nc(C)c(CCC(=O)Nc3ccccc3C)c(C)n2n1	1	0.59
Cc1cccc(CC(Cc2nc3ccccc3[nH]2)c2nc3ccccc3[nH]2)c1 (stereo not given)	1	0.8
CCOc1ccc2nc(N3CCC(C(=O)NCc4ccc(OC(C)C)cc4)CC3)sc2c1	1	-0.072
COc1ccc(N2CCN(C(c3cccs3)C(C)NC(=O)C(=O)N3CCCC3)CC2)cc1 (stereo not given)	0.82	-6
O=C(NC1CC1)c1cc(-c2ccncc2)nc2ccccc12	1.1	0.88
O=C1C2C(C(=O)N1c1ccc3ccccc3c1)C1C=CC2C12CC2 (stereo not given)	0.92	-1.1

A draw from above in order of count of non-hydrogen atoms, high to low:
SMILES	CBX7 AlphaScr	CBX7 AlphaScr z-score
CCOc1ccc2nc(N3CCC(C(=O)NCc4ccc(OC(C)C)cc4)CC3)sc2c1	1	-0.072
COc1ccccc1-c1cc2nc(C)c(CCC(=O)Nc3ccccc3C)c(C)n2n1	1	0.59
Cc1cccc(CC(Cc2nc3ccccc3[nH]2)c2nc3ccccc3[nH]2)c1 (stereo not given)	1	0.8
CCC(C)Sc1nnc(Cc2cc(=O)[nH]c(=O)[nH]2)n1-c1ccc(OC)cc1 (stereo not given)	0.84	-2.4
O=C1C2C(C(=O)N1c1ccc3ccccc3c1)C1C=CC2C12CC2 (stereo not given)	0.92	-1.1
Cc1ccccc1Cn1ccc(NC(=O)c2onc(C)c2Cl)n1	1	1.3
O=C(NC1CC1)c1cc(-c2ccncc2)nc2ccccc12	1.1	0.88

Other records follow:
SMILES	CBX7 AlphaScr	CBX7 AlphaScr z-score
COc1cccc(NC(=O)C2CCN(S(=O)(=O)c3cccc4cccnc34)CC2)c1	1.2	2.1
CCC(=O)Nc1cc2nn(-c3ccc(Cl)cc3)nc2cc1C	1.3	1.7
CC(=O)Nc1ncc2c(n1)CC(c1ccco1)CC2=O (stereo not given)	1	1
CCN(CC)S(=O)(=O)c1ccc2c(c1)N(CC(=O)NCc1ccc(OC)cc1)C(=O)CS2	1	0.75
CCCCOc1cccc(C(=O)Nc2c(C(=O)c3ccc(Cl)cc3)oc3ccccc23)c1	1.4	1.4
CCn1cnc2cc(NCc3ccncc3)ccc21	0.96	-0.91
CCOC(=O)C1CCCN(c2c(NCCN3CCOCC3)c(=O)c2=O)C1 (stereo not given)	1	0.1
CCC(C)NC(=O)CCn1nc(-c2ccccc2)ccc1=O (stereo not given)	1	0.5
CCCNC(=O)Cn1cnc2sc(C(=O)Nc3cc(C)c(Cl)cc3OC)c(C)c2c1=O	1	0.29
CC1CCN(c2cc(=O)n(Cc3ccc(F)cc3)c(=O)[nH]2)CC1	0.96	-0.73
CCOc1cc2c(cc1OCC)C1C(C(=O)Nc3cccc(C(F)(F)F)c3)c3ccccc3C(=O)N1CC2 (stereo not given)	1	-0.022
O=C(CN1C(=O)COc2ccc(Cl)cc21)NCC1CCCO1 (stereo not given)	0.81	-2.3
FC(F)(F)c1cc(C(F)(F)F)n2nc(-c3ccccc3)cc2n1	1.1	1.9
Cc1ccc(-c2csc(N3CCN(Cc4ccc5c(c4)OCO5)CC3)n2)cc1	0.88	-2.3
Cc1ccc(C(=O)Nc2ncc(Cc3cccc(Cl)c3Cl)s2)cc1	1.1	1.9
COc1ccc(OC)c(CN2C(=O)c3ccccc3C2C(=O)NCc2cccnc2)c1 (stereo not given)	0.99	-0.26
Cn1nc(-c2ccc(Cl)cc2)c2cc(C(=O)Nc3ccccc3F)sc21	0.94	-1.1
CCN(CCCNS(=O)(=O)c1ccc2c(c1)CCN2C(=O)C1CC1)c1ccccc1	0.88	-3.5
COc1ccc(C(=O)Nc2cc(C(F)(F)F)ccc2OCc2ccccc2)cc1OC	1	1.2
COc1ccc(CNS(=O)(=O)c2ccc3c(c2)CC(=O)N3)cc1	0.85	-2.2
COc1ccc(-c2nn(C)c3sc(C(=O)NC(C)CCc4ccccc4)cc23)cc1OC (stereo not given)	0.99	-0.27
COc1ccccc1C(=O)Nc1c2c(nn1-c1cccc(C)c1)CSC2	1	0.24
COc1ccc(OCc2nc3ccccc3n2Cc2cccc3ccccc23)cc1	1	0.46
O=C(c1ccc(NC2=NC3CS(=O)(=O)CC3S2)cc1)N1CCN(C2CCCCC2)CC1 (stereo not given)	1.1	1
Cc1oc(-c2ccccc2F)nc1CN1CCC(C(=O)NCCCN2CCOCC2)CC1	1.1	2.4
Cc1ccc(Nc2cc(C(=O)NCCc3ccccc3)c3ccccc3n2)cc1C	1.1	2.5
Cc1ccc(-n2nc3c(c2NC(=O)C(C)Oc2ccccc2)CSC3)c(C)c1 (stereo not given)	0.97	-0.75
CCC(C)NC(=O)C1C2C=CC3(CN(Cc4ccc(C)cc4)C(=O)C13)O2 (stereo not given)	1.2	2.5
COc1ccc(-n2nc(C(=O)Nc3cc(OC)ccc3OC)c3ccccc3c2=O)cc1	1.1	0.34
COc1cccc(Nc2nc(-c3ccc(Cl)cc3Cl)nc3ccccc23)c1	1.3	3.5
CCc1ccc2oc(-c3cccc(NC(=O)c4ncn[nH]4)c3)nc2c1	0.013*	-17*
Cc1ccc2nc(-c3ccc(-n4ccnc4)cc3)cc(C(=O)O)c2c1	1.1	0.54
COc1cc2c(C(=O)Nc3ccc(F)c(Cl)c3)cn(CC(C)C)c(=O)c2cc1OC	1	0.71
Cc1cccc(-n2cc(-c3ccc(Cl)cc3)[nH]c2=O)c1	0.99	-0.41
CCCc1ccc(Oc2c(-c3ccc(OCC)cc3O)n[nH]c2C)cc1	0.75	-3.9
Cc1ccc(NC(=O)C2CCN(S(=O)(=O)c3cnc[nH]3)CC2)cc1	1.1	0.8
CCOC(CCNC(=O)C1c2cc(OC)c(OC)cc2C(=O)N2CCc3ccccc3C12)OCC (stereo not given)	1	1.2
CN(C)c1c(Cl)cc(C2CNC(=O)C2C(=O)O)cc1Cl (stereo not given)	1	0.6
COc1cc(C2C(N3C(=O)c4ccccc4C3=O)C(=O)N2c2cccc(C(F)(F)F)c2)cc(OC)c1OC (stereo not given)	0.84	-4.5
COc1ccc(-n2ncc3c(NCc4ccc(F)cc4)ncnc32)cc1	1.1	0.11
COc1ccc(CC(=O)Nc2ccc3oc(-c4ccccc4C)nc3c2)cc1OC	0.95	-0.48
COc1ccc(CNC(=O)Cc2c(C(=O)O)[nH]c3ccccc23)c(OC)c1	0.89	-3.2
Nc1nonc1-c1noc(-c2ccc(NC(=O)C(F)(F)F)cc2)n1	0.99	-0.19
O=C1C2C3C=CC(C4CC34)C2C(=O)N1c1cc(C(F)(F)F)ccc1Cl (stereo not given)	1.1	1.1
CCOc1cc2c(cc1OCC)C(c1ccc(OC)c(C)c1)NCC2 (stereo not given)	0.95	-1.4
COc1ccccc1CNC(=O)c1cn(C2CCCC2)c(=O)c2c1c1ccccc1n2C	1	-0.11
COc1ccc(-c2nnc(NC(=O)c3ccc(S(=O)(=O)N4CCCC4)cc3)o2)c(OC)c1	0.83	-6.9
O=C(CNS(=O)(=O)c1cccs1)NCc1ccc2c(c1)OCO2	0.99	-0.35
CN1C(=O)CSc2ccc(NC(=O)Nc3ccc(Cl)cn3)cc21	1	1
CCCN1CCN(C(=O)C2CCN(C(=O)c3cnn(-c4ccccc4)c3-n3cccc3)CC2)CC1	1	0.55

More structures follow.
SMILES	CBX7 AlphaScr	CBX7 AlphaScr z-score
Cc1ccccc1Nc1cc(C(=O)NCCc2ccc(Cl)cc2)c2ccccc2n1	0.95	-0.79
CC1CCN(CCCNC(=O)C2(S(=O)(=O)c3ccc(Cl)cc3)CC2)CC1	1	2.2
O=C(c1nnc(Cc2ccc(Cl)cc2)o1)N1CCOCC1	0.99	-0.26
COc1ccccc1CNC(=O)CSCc1nc(-c2ccccc2F)oc1C	1.1	1.3
CC(=O)Nc1ccc(-c2nnc(-c3ccccc3)c(-c3ccccc3)n2)cc1	0.95	-1.4
COc1cc2c(cc1OC)C(c1ccccc1OCc1ccccc1)CC(=O)N2 (stereo not given)	0.95	-0.44
COc1ccc(C2CC(=O)NC2=O)cc1Br (stereo not given)	1.1	0.92
Cc1cccc(CCNC(=O)c2cccc3c2C(=O)N(C2CCCCC2)C3)c1	0.87	-2.4
CCn1c(SCC(N)=O)nnc1-c1c[nH]c2ccccc12	1.2	1.1
Cc1ccccc1NC(=O)CSc1nnc(Cc2cc(=O)[nH]c(=O)[nH]2)n1-c1ccc(F)cc1	1	0.29
COc1ccc(-n2nc3c(c2NC(=O)c2cccc(C(F)(F)F)c2)CSC3)cc1	1	0.43
Cc1ccc(OCC(=O)Nc2ccc(S(=O)(=O)Nc3ncccn3)cc2)c(C(C)(C)C)c1	1	0.86
CCc1ccc(-c2csc(NC(=O)c3ccc(S(=O)(=O)N4CCc5ccccc54)cc3)n2)cc1	0.84	-3
CCN(CC)CCNC(=O)c1ccc2c(c1)NC(=O)c1ccccc1S2	1.3	1.9
CC1CCC(NC(=O)c2nnc(Cc3ccc(F)cc3)o2)CC1 (stereo not given)	0.92	-0.94
COc1ccccc1NC(=O)CCN1CCN(CCO)CC1	0.99	-0.3
O=S(=O)(c1ccc(Cl)cc1)N(CCCN1CCOCC1)Cc1cccs1	0.49*	-4*
COc1ccc(-n2cc(C(=O)Nc3cccc(NC(C)=O)c3)c3ccccc3c2=O)cc1	1	0.43
COc1ccc2c(c1)c(/C=C/c1nc3ccccc3c(=O)n1C)c(C)n2C	1	0.021
O=C(CC1Oc2ccccc2NC1=O)NCCCN1CCN(Cc2ccccc2)CC1 (stereo not given)	1.2	0.99

Five of these compounds, set out differently:
molecule,CBX7 AlphaScr,CBX7 AlphaScr z-score
Cc1ccc(OCC(=O)Nc2ccc(S(=O)(=O)Nc3ncccn3)cc2)c(C(C)(C)C)c1,1,0.86
CCc1ccc(-c2csc(NC(=O)c3ccc(S(=O)(=O)N4CCc5ccccc54)cc3)n2)cc1,0.84,-3
CCN(CC)CCNC(=O)c1ccc2c(c1)NC(=O)c1ccccc1S2,1.3,1.9
CC1CCC(NC(=O)c2nnc(Cc3ccc(F)cc3)o2)CC1 (stereo not given),0.92,-0.94
COc1ccccc1NC(=O)CCN1CCN(CCO)CC1,0.99,-0.3

The results go on.
SMILES	CBX7 AlphaScr	CBX7 AlphaScr z-score
CCc1ccc2c(c1)c(=O)c(S(=O)(=O)c1ccccc1)cn2CC(=O)Nc1ccc(C)cc1C	0.92	-1.1
COc1ccc(Cc2nnc(SCC(=O)Nc3cc(C)ccc3C)o2)cc1	1.4	4.1
O=C1CCc2cc(S(=O)(=O)N3CCC(C(=O)NC4CCCCCC4)CC3)ccc2N1	1	0.34
Cn1cc(CCCC(=O)NCc2ccc3c(c2)OCO3)c2ccccc21	0.84	-1.2
COc1ccc(CN2CCN(Cc3ccc(C)cc3)CC2)c(OC)c1OC	1	-0.0025
O=C(Nc1ccc(F)cc1)C(NS(=O)(=O)c1cccs1)c1ccccc1 (stereo not given)	0.97	-0.33
COc1ccc(OC)c(NC(=O)C2CCN(S(=O)(=O)c3cccc4cccnc34)CC2)c1	0.75	-3.2
Cc1ccccc1CN1CCN(CC(=O)NC(C)CCc2ccccc2)C1=O (stereo not given)	0.95	-0.84
O=C(NC1CC1)c1ccc2c(c1)N(Cc1ccc(F)cc1Cl)C(=O)CS2	1	1.8
CCN(CC)S(=O)(=O)c1ccc2c(c1)N(CC(=O)N1CCCCC1C)C(=O)CS2 (stereo not given)	1	0.71
O=C1Nc2ccccc2Oc2ccc(S(=O)(=O)N3CCOCC3)cc21	0.92	-1.1
Cc1[nH]c2ccccc2c1CCNC(=O)c1ccc(F)cc1	1.1	2.2
O=C(NCc1ccccn1)c1cc(-c2ccncc2)nc2ccccc12	0.97	-0.23
Cc1ccc(OCc2nc3ccccc3n2Cc2cccc(C)c2)cc1	0.93	-2.6
CCOc1ccc2nc(Nc3nc(C)c(CC)c(=O)[nH]3)nc(C)c2c1	0.99	-0.17
COc1ccc(-n2nc(C(=O)Nc3ccccc3OC)c3ccccc3c2=O)cc1	1.1	1.8
Cc1cccc(OCC(=O)Nc2ccc(Cl)c(-c3nc4ccccc4o3)c2)c1	0.99	-0.26
COc1cccc2sc(NC(=O)c3ccc(S(=O)(=O)N4CCCCC4C)cc3)nc12 (stereo not given)	1.1	0.97
CC(=O)N1CCc2cc(S(=O)(=O)NC(C(=O)Nc3cc(Cl)ccc3C)C(C)C)ccc21 (stereo not given)	1	0.11
COc1cc(-c2nc(-c3ccc(Cl)cc3)no2)cc(OC)c1OC	0.94	-1.1
CCn1cc(C(=O)NCc2cccnc2)c2cc(OC)c(OC)cc2c1=O	1.1	1.6
CCc1ccc(-c2nc(CSCC(=O)N3CCN(c4ncccn4)CC3)c(C)o2)cc1	1.1	1
COC(=O)c1cc2occc2n1Cc1nc(-c2ccc(OC)cc2)oc1C	1	1.2
Cc1nc2c(-c3ccccc3)c(C)nn2c(C)c1CCC(=O)NC1CCCCCC1	1.1	1.2
CCCCCCNC(=O)CCc1c(C)nc2cc(-c3cccc(F)c3)nn2c1C	0.96	-0.61
O=C(CCc1nc(-c2cccs2)no1)Nc1cnc2ccccc2c1	0.89	-0.11
O=C(Nc1ccc(F)cc1Cl)c1cnc(N2CCN(c3ccccn3)CC2)c2ccccc12	1.1	2.1
COc1ccc(NC(=O)CSc2nc(-c3ccccc3)[nH]c2-c2ccccc2)cc1	0.86	-6.7
O=C(Nc1ccc(Cl)cc1)c1cnn(-c2ccc(F)cc2)c1C1CCNCC1	1	1.6
CCOC(=O)c1c[nH]c2ccc(C(C)C)cc2c1=O	0.86	-2.1

Sorted by the number under CBX7 AlphaScr z-score (highest first): some entries from above.
Structure,CBX7 AlphaScr z-score
CCn1cc(C(=O)NCc2cccnc2)c2cc(OC)c(OC)cc2c1=O,1.6
Cc1nc2c(-c3ccccc3)c(C)nn2c(C)c1CCC(=O)NC1CCCCCC1,1.2
CCc1ccc(-c2nc(CSCC(=O)N3CCN(c4ncccn4)CC3)c(C)o2)cc1,1

High-throughput results: PubChem BioAssay, several laboratories
